# NOMO-1 viab: STK33 inhibitor candidate reducing NOMO-1 cell viability; NOMO-1 AML viability, CellTiter-Glo luminescence, 72 h; inhibition, % (concentration not given with the values); 37,000 tested, 7.5% active; AID 2330;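 active = most replicates above 80%; inconclusive = exactly half above 80%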;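 also: wells of about 30 µL received 25 nL stock; 0% = median of vehicle wells and 100% = reference inhibitor level; the first replicate is given; inactives centre near 10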
# * hit, by the source's call; ? = inconclusive. Not all compounds are listed; rates above refer to the full screens.
SMILES,NOMO-1 viab
C[C@H]1CN([C@@H](C)CO)C(=O)c2cccc(NS(C)(=O)=O)c2O[C@@H]1CN(C)C(=O)Nc1ccccc1,-9
C[C@H](CO)N1C[C@H](C)[C@H](CN(C)S(=O)(=O)c2cn(C)cn2)Oc2ccc(NS(=O)(=O)c3ccc(F)cc3)cc2CC1=O,-13
CCOC(=O)c1ccc(Cn2c(-c3ccccc3)nnc2-c2ccccc2)o1,23
CN(CC(=O)Nc1ccc(Nc2ccccc2)cc1)S(=O)(=O)c1cc(Cl)ccc1Cl,48
COc1ccc(N(CC(=O)Nc2ccccc2C(=O)O)S(C)(=O)=O)cc1,-15
C[C@@H]1CCCCO[C@H](CN(C)C(=O)Cc2ccccc2)[C@@H](C)CN([C@H](C)CO)C(=O)c2cc(NC(=O)Nc3ccccc3)ccc2O1,5
C[C@@H]1CN([C@@H](C)CO)C(=O)c2cccc(NS(=O)(=O)c3ccc(Cl)cc3)c2O[C@H]1CN(C)C(=O)Nc1ccc(F)cc1,9
C[C@@H]1CN([C@@H](C)CO)C(=O)c2cc(N(C)C)ccc2O[C@H]1CN(C)Cc1ccncc1,-1
CC(C)NC(=O)Nc1cccc2c1O[C@@H](CN(C)Cc1ccc(C(=O)Nc3ccccc3N)cc1)[C@@H](C)CN([C@H](C)CO)C2=O,71
Cc1sc2ncnc(SCC(=O)C(C)(C)C)c2c1C,29
Cc1ccc(S(=O)(=O)Nc2cccc3c2O[C@@H](CN(C)S(=O)(=O)c2ccc(F)cc2)[C@@H](C)CN([C@H](C)CO)C3=O)cc1,-4
C[C@@H]1CN([C@H](C)CO)C(=O)Cc2cc(NC(=O)NC3CCCCC3)ccc2O[C@@H]1CN(C)Cc1ccc(-c2ccccc2)cc1,9

# As a working copy, some entries already given.
SMILES,NOMO-1 viab
C[C@H](CO)N1C[C@H](C)[C@H](CN(C)S(=O)(=O)c2cn(C)cn2)Oc2ccc(NS(=O)(=O)c3ccc(F)cc3)cc2CC1=O,-13
CCOC(=O)c1ccc(Cn2c(-c3ccccc3)nnc2-c2ccccc2)o1,23
CN(CC(=O)Nc1ccc(Nc2ccccc2)cc1)S(=O)(=O)c1cc(Cl)ccc1Cl,48
COc1ccc(N(CC(=O)Nc2ccccc2C(=O)O)S(C)(=O)=O)cc1,-15
C[C@@H]1CCCCO[C@H](CN(C)C(=O)Cc2ccccc2)[C@@H](C)CN([C@H](C)CO)C(=O)c2cc(NC(=O)Nc3ccccc3)ccc2O1,5
C[C@@H]1CN([C@@H](C)CO)C(=O)c2cccc(NS(=O)(=O)c3ccc(Cl)cc3)c2O[C@H]1CN(C)C(=O)Nc1ccc(F)cc1,9

# Next section
SMILES,NOMO-1 viab
C[C@@H]1CN([C@@H](C)CO)C(=O)c2cccc(NS(C)(=O)=O)c2O[C@@H]1CN(C)C(=O)Nc1ccc(C(F)(F)F)cc1,-5
C[C@H]1CN([C@@H](C)CO)C(=O)c2cc(NC(=O)C3CC3)ccc2O[C@@H]1CN(C)CC1CCCCC1,11
COC(=O)c1ccc(NC(=O)COc2cccc3ccccc23)cc1,6
C[C@H]1CN([C@@H](C)CO)C(=O)c2cc(NS(=O)(=O)c3cn(C)cn3)ccc2O[C@@H]1CN(C)C,17
Cc1cccc(Nc2nc(N)nc(CSc3nccc(C)n3)n2)c1,36
Cc1ccc(S(=O)(=O)N(C)CC(=O)Nc2ccccc2Br)cc1,-12
COC(=O)c1ccc(C2C(C(=O)c3cc4ccccc4o3)C(=O)C(=O)N2Cc2ccncc2)cc1 (configuration not stated),-27
C[C@@H]1CN([C@H](C)CO)C(=O)c2cccc(NC(=O)CCCCCC(=O)Nc3ccccc3N)c2O[C@@H]1CN(C)C(=O)Nc1ccc(F)cc1,30
O=C(NC(=S)Nc1cccc(-c2ccc(CO)o2)c1)c1cc2ccccc2o1,35
Cc1ccc(S(=O)(=O)Nc2ccc3c(c2)C(=O)N([C@H](C)CO)C[C@@H](C)[C@H](CN(C)C(=O)Nc2ccc(C(F)(F)F)cc2)O3)cc1,37
O=C(CSc1nnc(-c2ccccc2O)n1-c1ccccc1)Nc1ccccc1Cl,-11
Cc1cccc(NC(=O)CSc2nc3sc4c(c3c(=O)[nH]2)CCCC4)c1,-1
C[C@H](CO)N1C[C@H](C)[C@H](CN(C)S(=O)(=O)c2ccc(F)cc2)Oc2c(NS(=O)(=O)c3cccs3)cccc2C1=O,-1
O=C(Cn1cc(C(=O)c2ccccc2)c2ccccc21)Nc1ccc(Cl)cc1,47
COc1ccc(NC(=O)N(C)C[C@@H]2Oc3c(NC(=O)Nc4ccc(C(F)(F)F)cc4)cccc3C(=O)N([C@H](C)CO)C[C@H]2C)cc1,?
COc1ccc(S(=O)(=O)Nc2ccc3c(c2)CC(=O)N([C@H](C)CO)C[C@@H](C)[C@@H](CN(C)S(=O)(=O)c2cccs2)O3)cc1,9
C[C@@H]1CN([C@@H](C)CO)C(=O)Cc2cc(NS(=O)(=O)c3ccccc3)ccc2O[C@@H]1CN(C)S(=O)(=O)c1cccs1,9
COc1ccccc1OCC(=O)Nc1cc(Cl)ccc1O,29
COC(=O)c1ccccc1NC(=O)COc1cc(C)ccc1C(C)C,18
CCOc1ccc(-c2nc(SCc3ccc(C(=O)OC)o3)n[nH]2)cc1,?
Cc1ccc2nc(C)c3c(c2c1)N(c1ccccc1)CC3,122*
CC(C)Oc1ccc2c(=O)cc(-c3ccccc3)oc2c1,23
COc1ccc(OC)c(S(=O)(=O)NCCO)c1,-4
COc1ccc(S(=O)(=O)Nc2ccc3c(c2)C(=O)N([C@H](C)CO)C[C@@H](C)[C@H](CN(C)C(=O)Nc2ccc(F)cc2)O3)cc1,14
O=C(COc1ccc([N+](=O)[O-])cc1)Nc1ccccc1OC(F)F,13
C[C@H](CO)N1C[C@H](C)[C@@H](CN(C)S(=O)(=O)c2cccs2)Oc2c(NS(=O)(=O)c3ccccc3)cccc2C1=O,-13
C[C@@H]1CCCCO[C@H](CN(C)Cc2ccc(Cl)c(Cl)c2)[C@@H](C)CN([C@H](C)CO)C(=O)c2cc(N(C)C)ccc2O1,87*
C[C@H](CO)N1C[C@H](C)[C@@H](CN(C)C(=O)Nc2ccc(F)cc2)Oc2ccc(NC(=O)Nc3ccc(F)cc3)cc2C1=O,-4
COc1ccc(S(=O)(=O)Nc2ccc3c(c2)C(=O)N([C@@H](C)CO)C[C@@H](C)[C@@H](CN(C)Cc2ccc(C(=O)Nc4ccccc4N)cc2)O3)cc1,110*
C[C@H]1CN([C@@H](C)CO)C(=O)Cc2cc(NS(=O)(=O)c3ccc(F)cc3)ccc2O[C@@H]1CN(C)Cc1ccncc1,8
CCn1ccc(CNC(=O)Nc2cccc(C(F)(F)F)c2)n1,16
CCOc1ccc(NC(=O)CSc2ncccn2)cc1,1
C=C1C(=O)O[C@@H]2C[C@@]3(C)CC(=O)C=C(C)C3C[C@H]12 (some centres not stated),120*
Cc1ccc(NC(=O)CSc2nc(O)c(C)c(=O)n2-c2ccccc2F)c(C)c1,27
C[C@H](CO)N1C[C@H](C)[C@H](CN(C)Cc2ccc(Cl)c(Cl)c2)Oc2c(NC(=O)c3cnccn3)cccc2C1=O,21
C[C@H](CO)N1C[C@H](C)[C@H](CN(C)Cc2ccncc2)Oc2ccc(NS(=O)(=O)c3cn(C)cn3)cc2C1=O,-2

# Molecules shown so far containing a thiophene ring, fused or not (6):
SMILES,NOMO-1 viab
Cc1sc2ncnc(SCC(=O)C(C)(C)C)c2c1C,29
Cc1cccc(NC(=O)CSc2nc3sc4c(c3c(=O)[nH]2)CCCC4)c1,-1
C[C@H](CO)N1C[C@H](C)[C@H](CN(C)S(=O)(=O)c2ccc(F)cc2)Oc2c(NS(=O)(=O)c3cccs3)cccc2C1=O,-1
COc1ccc(S(=O)(=O)Nc2ccc3c(c2)CC(=O)N([C@H](C)CO)C[C@@H](C)[C@@H](CN(C)S(=O)(=O)c2cccs2)O3)cc1,9
C[C@@H]1CN([C@@H](C)CO)C(=O)Cc2cc(NS(=O)(=O)c3ccccc3)ccc2O[C@@H]1CN(C)S(=O)(=O)c1cccs1,9
C[C@H](CO)N1C[C@H](C)[C@@H](CN(C)S(=O)(=O)c2cccs2)Oc2c(NS(=O)(=O)c3ccccc3)cccc2C1=O,-13

# (continued)
SMILES,NOMO-1 viab
CCc1ccc(C(=O)CC2OC(=O)c3c2ccc(OC)c3OC)cc1 (configuration not stated),25
CC(C(=O)Nc1ccccc1Cl)N(c1ccc(Cl)cc1)S(C)(=O)=O (configuration not stated),-4
FC(F)(F)c1ccccc1N=C1CCCc2ccccc21,13
C[C@@H]1CN([C@H](C)CO)C(=O)c2cc(NC(=O)Nc3cccc4ccccc34)ccc2O[C@@H]1CN(C)S(=O)(=O)c1ccc(Cl)cc1,15
C[C@@H]1CN([C@@H](C)CO)C(=O)c2cc(NC(=O)Cc3cn(C)c4ccccc34)ccc2O[C@H]1CN(C)C(=O)Nc1cccc2ccccc12,18
COc1ccc(NC(=O)N(C)C[C@@H]2Oc3ccc(NC(=O)CCC(F)(F)F)cc3CC(=O)N([C@H](C)CO)C[C@H]2C)cc1,-24
COc1ccccc1NC(=O)C1=C(C)Nc2nnnn2C1c1ccccn1 (configuration not stated),17
C[C@@H]1CN([C@@H](C)CO)C(=O)c2cc(NC(=O)CCC(F)(F)F)ccc2O[C@@H]1CN(C)Cc1ccc(C(=O)O)cc1,10
C[C@@H]1CN([C@H](C)CO)C(=O)Cc2cc(NC(=O)Cc3cn(C)c4ccccc34)ccc2O[C@H]1CN(C)C(=O)Nc1cccc2ccccc12,18
CCN(CC)CCN1Cc2c(sc(C)c2C)N(C(=O)c2ccccc2)C1,33
COc1ccc(Br)cc1S(=O)(=O)Nc1ccc(Cl)cn1,-21
Nc1nc(SCc2nnc(Nc3ccccc3)s2)nc2sc3c(c12)CCC3,51
CNC[C@H]1Oc2ccc(NC(=O)Cc3cn(C)c4ccccc34)cc2CC(=O)N([C@H](C)CO)C[C@H]1C,12
C[C@H]1CN([C@@H](C)CO)C(=O)c2cccc(NS(C)(=O)=O)c2O[C@@H]1CN(C)C(=O)Nc1cccc2ccccc12,-3
COc1ccc(S(=O)(=O)Nc2ccc3c(c2)C(=O)N([C@@H](C)CO)C[C@@H](C)[C@H](CN(C)C(=O)Nc2ccccc2)O3)cc1,2
COc1ccc(NC(=O)C(=O)NCc2cccnc2)cc1OC,5
CC(C)NC(=O)Nc1cccc2c1O[C@H](CN(C)Cc1ccc(-c3ccccc3)cc1)[C@H](C)CN([C@H](C)CO)C2=O,5
NC(=O)CSc1nnc(-c2cccs2)n1-c1ccccc1,0
C[C@H]1CN([C@@H](C)CO)C(=O)Cc2cc(NC(=O)Cc3cn(C)c4ccccc34)ccc2O[C@H]1CN(C)Cc1ccc2c(c1)OCO2,26
CC(C)NC(=O)N(C)C[C@H]1Oc2c(NC(=O)c3ccncc3)cccc2C(=O)N([C@H](C)CO)C[C@@H]1C,5
C[C@@H]1CN([C@@H](C)CO)C(=O)c2cc(NC(=O)c3ccncc3)ccc2O[C@@H]1CN(C)S(=O)(=O)c1cn(C)cn1,12
C[C@@H]1CN([C@@H](C)CO)C(=O)c2cc(NC(=O)C3CCCCC3)ccc2O[C@H]1CN(C)S(=O)(=O)c1cn(C)cn1,-5
COC(=O)CSc1nnc(-c2sc3ccccc3c2Cl)n1-c1ccccc1,30
CSc1sc(NC(=O)N2CCOCC2)c(-c2ccc(Cl)cc2)c1C#N,36
O=C(O)CCC(=O)N1N=C(c2cccs2)CC1c1ccco1 (configuration not stated),0
C[C@@H]1CN([C@H](C)CO)C(=O)c2cc(NC(=O)C3CCCCC3)ccc2O[C@@H]1CN(C)S(=O)(=O)c1ccccc1,15
C[C@H]1CN([C@@H](C)CO)C(=O)c2cc(NC(=O)CCCN(C)C)ccc2O[C@H]1CN(C)C,0
COc1ccc(NC(=O)N(C)C[C@H]2Oc3c(NC(=O)Nc4ccccc4)cccc3C(=O)N([C@@H](C)CO)C[C@@H]2C)cc1,-1
Cc1ccc(-n2nnnc2-c2cnn(-c3ccccc3)c2C)cc1,30
Cc1ccc2c(c1)c1nc3ccccc3nc1n2CC(=O)N(c1ccccc1)C(C)C,8
CCOc1ccccc1C(=O)Nc1ccc(S(=O)(=O)Nc2nc(C)cc(C)n2)cc1,35
COc1ccccc1NC(=O)CSc1nc2ccccc2o1,21
Cc1noc(C)c1NC(=O)Nc1cccc2c1O[C@@H](CN(C)S(=O)(=O)c1ccc(Cl)cc1)[C@@H](C)CN([C@H](C)CO)C2=O,-1
O=C(Nc1c(F)cccc1F)C1CN(S(=O)(=O)c2ccccc2)CCN1S(=O)(=O)c1ccccc1 (configuration not stated),14
Cc1cc(Cc2cccs2)c(=O)[nH]n1,25
Cc1noc(C)c1S(=O)(=O)N(C)C[C@@H]1Oc2ccc(NC(=O)Nc3ccc4c(c3)OCO4)cc2CC(=O)N([C@H](C)CO)C[C@@H]1C,2
CC(C)NC(=O)Nc1ccc2c(c1)C(=O)N([C@H](C)CO)C[C@@H](C)[C@@H](CN(C)Cc1ccc3c(c1)OCO3)O2,-9
Cc1noc(C)c1S(=O)(=O)Nc1ccc2c(c1)CC(=O)N([C@@H](C)CO)C[C@@H](C)[C@@H](CN(C)S(=O)(=O)c1cccs1)O2,12
C[C@@H]1CN([C@H](C)CO)C(=O)Cc2cc(NS(C)(=O)=O)ccc2O[C@@H]1CN(C)C(=O)NC1CCCCC1,19
O=C(Nc1cccc2ccccc12)c1cc2ccccc2oc1=O,-5
C[C@H]1CN([C@@H](C)CO)C(=O)Cc2cc(NC(=O)Nc3ccccc3)ccc2O[C@H]1CN(C)C(=O)Nc1ccccc1,10
Cc1noc(C)c1NC(=O)Nc1cccc2c1O[C@H](CN(C)Cc1ccccc1)[C@H](C)CN([C@@H](C)CO)C2=O,-15
C[C@H](CO)N1C[C@H](C)[C@H](CN(C)C(=O)Nc2ccccc2)Oc2c(NC(=O)C3CC3)cccc2C1=O,11
C[C@@H]1CN([C@@H](C)CO)C(=O)c2cccc(NS(=O)(=O)c3ccc(Cl)cc3)c2O[C@H]1CN(C)Cc1ccc(C(=O)O)cc1,-11
COc1ccc(CN(C)C[C@@H]2Oc3ccc(NS(C)(=O)=O)cc3CC(=O)N([C@H](C)CO)C[C@H]2C)cc1,-8
C[C@H]1CN([C@@H](C)CO)C(=O)Cc2cc(NS(C)(=O)=O)ccc2O[C@H]1CN(C)C(=O)NC1CCCCC1,-24
CSC(SC)=C(C#N)C(=O)c1cccc(C(F)(F)F)c1,123*
Cc1cc(C(=O)Nc2cccc3c2O[C@H](CN(C)C(=O)Nc2ccccc2)[C@H](C)CN([C@H](C)CO)C3=O)n(C)n1,22
